Bioassay records (PubChem BioAssay)
Mtb H37Rv = M. tuberculosis H37Rv growth inhibitors, H37Rv strain (AID 1626) | M. tuberculosis H37Rv growth inhibition; higher % means a stronger effect | one-dose inhibition, % at 10 µM; IC50 in µM for titrated hits | actives 0.95% (n = 220,000);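 active means confirmed in a dose series; inconclusive means inhibition above 80% but not taken into the dose series; inactive means below 80% or under 30% at every dose of the series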;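 further: bacteria incubated seven days before Alamar blue readout; 0% = bacteria only wells and 100% = bacteria with antibiotic wells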
Mtb bLac sens = beta-lactam sensitization of Mtb H37Rv. M. tuberculosis H37Rv growth with meropenem, percent inhibition; hits of this screen are not shown here. inhibition, % at 25 µM. actives 0.27% (n = 330,000). AID 434955;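 active means about 74% or more and at least 40 points above the plate without the antibiotic, then above 30% in a dose series; inconclusive means first-round hits that could not be retested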;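 further: growth measured after seven days incubation then overnight dye step; 0% = bacteria only wells and 100% = bacteria with antibiotic; twin plates without the antibiotic show which effects depend on it; some results filed as inactive read as strong as hits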
Arbovirus anti = arbovirus infection inhibition. arbovirus infection cell-based antiviral screen. inhibition, % at 10 µM. actives 0.37% (n = 200,000);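 active means inhibition from about 30%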;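 further: bluetongue infection of BSR cells; cell survival read as ATP light after 72 h; 0% = infected wells without compound and 100% = uninfected wells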
YopH PTP inh = blocks Yersinia enterocolitica YopH tyrosine phosphatase; fluorescence Ex485/Em525; inhibition, %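 (about 10 µM by stock and volumes)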; actives 0.16% (n = 140,000); AID 898;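 active means inhibition of 50% or more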;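 further: controls were vehicle for no effect and minimum signal wells for full effect; inactives centre near -20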
RecA intein inh = blocks M. tuberculosis RecA intein splicing; AID 2221; actives 0.75% (n = 290,000); cell-free RecA intein splicing, fluorescence; inhibition, %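 (about 9 µM by stock and volumes)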; P9WHJ3; in the data active means inhibition above about 30%; inconclusive means no clear call, values can overlap the other calls;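 further: 0% = vehicle wells and 100% = reference inhibitor control wells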
Target sequence (P9WHJ3 whole entry, looked up): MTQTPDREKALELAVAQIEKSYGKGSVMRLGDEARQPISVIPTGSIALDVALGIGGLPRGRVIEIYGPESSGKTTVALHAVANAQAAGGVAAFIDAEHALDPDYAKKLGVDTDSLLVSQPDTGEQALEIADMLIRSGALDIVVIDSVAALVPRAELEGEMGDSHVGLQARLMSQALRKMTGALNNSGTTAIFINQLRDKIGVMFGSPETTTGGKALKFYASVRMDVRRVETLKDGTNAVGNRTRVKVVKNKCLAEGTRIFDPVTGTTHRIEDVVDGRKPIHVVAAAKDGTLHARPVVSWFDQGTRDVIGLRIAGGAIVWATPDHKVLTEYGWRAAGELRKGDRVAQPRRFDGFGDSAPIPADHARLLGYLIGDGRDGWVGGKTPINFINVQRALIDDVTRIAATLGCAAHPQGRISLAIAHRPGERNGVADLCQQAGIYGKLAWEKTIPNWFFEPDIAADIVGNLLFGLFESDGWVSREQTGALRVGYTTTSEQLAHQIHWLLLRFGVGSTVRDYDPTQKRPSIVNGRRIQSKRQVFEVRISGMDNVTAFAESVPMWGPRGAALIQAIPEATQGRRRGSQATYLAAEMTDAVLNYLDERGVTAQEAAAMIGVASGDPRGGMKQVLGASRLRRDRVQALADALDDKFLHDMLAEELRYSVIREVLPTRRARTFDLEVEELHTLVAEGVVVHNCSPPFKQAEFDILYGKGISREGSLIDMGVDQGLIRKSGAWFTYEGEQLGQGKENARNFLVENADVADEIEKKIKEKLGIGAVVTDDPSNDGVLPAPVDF
Arbovirus anti repeat = further read-out of Arbovirus anti, marked with its call; inhibition, %; measured here: 10K subset replicate screen; many hits read low in the repeat;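 first of two repeat runs on a subset; 0% = infected and 100% = uninfected wells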
Starred values were filed as active, the others as inactive; ? = inconclusive; . = not tested or not shown. An excerpt, so the mix of outcomes need not match the whole.

SMILES	Mtb H37Rv	Mtb bLac sens	Arbovirus anti	YopH PTP inh	RecA intein inh	others
COc1ccc(NC(=O)CN(C)C(=O)Cc2ccc3c(c2)OCCO3)cc1	.	-10.4	.	.	0.2
CCOc1ccc(-n2nnc3c(=O)n(CC(=O)N4CCCc5ccccc54)cnc32)cc1	1.6%	-4.5	-16.3	-24.5	5.3	Arbovirus anti repeat=-0.8
Cc1cc(C)c(C(=O)COC(=O)c2cccnc2Cl)c(C)c1	-6.1%	0.6	-0.2	.	2.9
COc1ccc(N=C2C(=Nc3ccc(OC)cc3)N(c3ccc(N(C)C)cc3)C(=S)N2c2ccc(OC)cc2)cc1	-5.2%	3.2	-17.0	-20.3	-2.7
O=C(Nc1ccc(C(F)(F)F)cc1)c1cc(-c2cccnc2)nc2ccc(Br)cc12	28.4%	76.4	16.5	-33.5	4.9
O=C(O)C(CO)(c1ccccc1)c1ccccc1	.	-9.2	.	.	-2.4
COc1ccc(S(=O)(=O)Cc2ccc(C(=O)N3CCCC3)o2)cc1	-12.2%	-4.8	3.1	-39.0	-0.5	Arbovirus anti repeat=3.0
Nc1cc(N2CCOCC2)c(Cl)cc1[N+](=O)[O-]	0.3%	5.5	-10.8	.	-1.3
Cc1c2cnn(CC(=O)N3CCOCC3)c(=O)c2c(C)n1Cc1ccccc1F	.	-6.0	.	.	-1.2
Cc1cc(C(=O)N2CCN(c3cc(Cl)ccc3C)CC2)on1	.	-2.0	.	.	1.6

Next section, overlapping the part above by two compounds.
SMILES	Mtb H37Rv	Mtb bLac sens	Arbovirus anti	YopH PTP inh	RecA intein inh	others
Cc1c2cnn(CC(=O)N3CCOCC3)c(=O)c2c(C)n1Cc1ccccc1F	.	-6.0	.	.	-1.2
Cc1cc(C(=O)N2CCN(c3cc(Cl)ccc3C)CC2)on1	.	-2.0	.	.	1.6
Cc1cc(NC(=O)CSc2nc3cc(C(=O)NCCCOC(C)C)ccc3c(=O)n2Cc2ccco2)no1	7.7%	-5.4	8.1	.	0.8
Clc1cccc(-c2cc3nc4c(c(N5CCN(c6cnccn6)CC5)n3n2)CCCC4)c1	?	79.3	-0.9	1.1	-0.3
CCOc1ccc(CNC(=O)C2CCN(S(=O)(=O)c3ccc4c(c3)CCCC(=O)N4)CC2)cc1	.	0.6	.	.	-3.5
COc1cc(NS(=O)(=O)c2ccc(Br)cc2)c(OC)cc1NC(=O)c1ccco1	-3.2%	-4.8	-4.7	-24.1	2.4
O=C(COC(=O)CCC(=O)c1ccccc1)NCCc1ccccc1	.	-4.2	.	.	1.1
CC(C)(C)C(=O)COC(=O)CCc1nc2ccccc2[nH]c1=O	-3.7%	2.6	-2.9	.	0.7
O=C(c1ccoc1)N1CCC(CO)(CCc2ccccc2)CC1	1.3%	-3.4	2.0	.	0.5
Nc1ncc([N+](=O)[O-])cc1S(=O)(=O)c1ccccc1	.	-6.0	.	.	0.9
Cc1ccc(-c2cc(C(=O)NCc3ccccn3)c3ccccc3n2)cc1C	29.6%	92.6	-11.3	-9.1	-2.3
CCN(NC(=O)C(O)(c1ccccc1)c1ccccc1)C(=O)c1ccccc1	-2.5%	-3.6	1.6	-6.0	0.0
Oc1ccc(/C=N/NC(=S)N/N=C/c2ccc(O)cc2)cc1	-3.2%	-1.5	-13.7	.	-2.8
CCN(CC)C(=O)CSc1nnc2nnc3cc(C)ccc3n12	65.9%	78.4	.	.	-2.4
N#CC1=C(N)OC2=C(C(=O)CCC2)C1c1ccccc1 (stereo not drawn)	-5.3%	-2.9	12.4	-33.5	-11.9
COc1ccccc1NS(=O)(=O)c1ccccc1C#N	-13.3%	9.0	1.3	-9.7	2.3
COc1cccc(C(=O)N2CCCC(Nc3ccc(C)c(C)c3)C2)c1 (stereo not drawn)	.	3.3	.	.	-1.9
CCOC(=O)c1sc(C)c2c1NC(C)(c1cccs1)NC2=O (stereo not drawn)	5.7%	5.9	-0.5	8.0	8.7
COc1ccc(OC)c(CN2C(=O)CCC2(C)C(=O)NC2CCCCCC2)c1 (stereo not drawn)	-7.1%	3.0	-0.8	-33.4	0.1
COc1ccc(C2=NN(c3nc(C)cc(C)n3)C(=O)C2)cc1	1.5%	2.5	3.5	.	78.3*
Cc1cc(C(=O)CN2CCC(C)CC2)c(C)n1-c1ccccc1F	5.9%	-3.1	4.3	-10.4	1.1
CCN(CC)S(=O)(=O)c1cc(NC(=O)c2cccc(N3C(=O)CCC3=O)c2)ccc1Cl	.	3.5	.	.	-1.5
CN(C)S(=O)(=O)N1CCCC(C(=O)c2ccc(-c3ccccc3)c(F)c2)C1 (stereo not drawn)	-6.0%	5.7	0.4	.	0.0
Cc1c(CC(=O)NCC(=O)O)c(=O)oc2cc3c(cc12)CCC(C)(C)O3	.	-7.0	.	.	1.3
COc1ccc(Cl)cc1NC(=O)C1CCCN(c2cc(C)nc3ncnn23)C1 (stereo not drawn)	-3.6%	?	-5.2	2.0	3.0
O=C(O)CCNc1nc(-c2ccccc2)c2cc(Br)ccc2n1	.	3.1	.	.	-36.1
CCCN1CCN(CC(=O)Nc2nnc(C)s2)CC1	.	-12.2	.	.	0.0
O=C(COC(=O)c1cccc(Br)c1)Nc1ccc2[nH]c(=O)[nH]c2c1	.	-2.9	.	.	-2.1
COC(=O)c1cccc(NC(=O)CSc2nnc(COc3cccc(C)c3)n2C)c1	-3.9%	-11.4	1.2	-38.6	-1.2
CCCCSc1nc2[nH]ncc2c(=O)[nH]1	3.4%	2.7	-7.6	-21.1	-2.7
Cn1cnc2c(=O)[nH]cc([N+](=O)[O-])c21	2.1%	-1.3	11.5	.	3.9
COc1ccc(CCNCc2c(OC)ccc3ccccc23)cc1	.	-3.7	.	.	-0.6
Cc1ccc(S(=O)(=O)NCCC(=O)NCc2ccc3c(c2)OCO3)cc1C	-1.1%	0.7	-3.5	-50.2	0.0
CCOC(=O)c1c(C)nc2c(c(SC)nn2-c2ccccc2)c1N	0.3%	14.9	-0.4	-21.1	0.8
Cc1cc(C)cc(NC(=S)/C(=C(\[O-])c2ccc(Cl)s2)[n+]2cccc(C)c2)c1	-5.8%	4.2	-7.8	.	3.5
Cc1ccc(NC=C(S(=O)(=O)c2ccccc2)S(=O)(=O)c2ccccc2)cc1	3.9%	-4.8	2.0	-9.0	-9.5
Cc1ccc(S(=O)(=O)N(C)c2cc(S(=O)(=O)N3CCC(C)CC3)c(C)cc2C)cc1	9.9%	-3.5	-11.1	-34.5	10.2
Clc1cccc(Cl)c1-c1nnc2cccc(Cl)n12	-7.0%	2.9	0.8	-14.2	-1.0
Cc1cc2c(OCC(O)CNC(C)(C)C)cccc2[nH]1 (stereo not drawn)	-0.2%	-0.2	5.8	-9.1	1.3
C#CCNC(=O)C1=C[C@@H](C2CC2)C[C@@H](OCCCCO)O1	-17.3%	-1.7	.	.	1.9
O=C(CNC(=O)c1sc2ccccc2c1Cl)NCc1cccc(C(F)(F)F)c1	.	5.0	.	.	-0.9
CC(=O)c1cccc(NC(=O)c2cccc(S(=O)(=O)N3CCOCC3)c2)c1	.	-7.3	.	.	-0.7

Sorted by number of heavy atoms (lowest first): 4 of the compounds above
SMILES	Mtb H37Rv	Mtb bLac sens	Arbovirus anti	YopH PTP inh	RecA intein inh	others
Cc1cc2c(OCC(O)CNC(C)(C)C)cccc2[nH]1 (stereo not drawn)	-0.2%	-0.2	5.8	-9.1	1.3
C#CCNC(=O)C1=C[C@@H](C2CC2)C[C@@H](OCCCCO)O1	-17.3%	-1.7	.	.	1.9
CC(=O)c1cccc(NC(=O)c2cccc(S(=O)(=O)N3CCOCC3)c2)c1	.	-7.3	.	.	-0.7
O=C(CNC(=O)c1sc2ccccc2c1Cl)NCc1cccc(C(F)(F)F)c1	.	5.0	.	.	-0.9

More structures follow:
SMILES	Mtb H37Rv	Mtb bLac sens	Arbovirus anti	YopH PTP inh	RecA intein inh	others
COc1ccc(S(=O)(=O)N2CCC(c3cc(-c4cccc5ccccc45)n[nH]3)CC2)cc1	3.4%	78.1	14.9	13.4	-3.2
CC(C)=CC(=O)NCCc1ccccc1	6.6%	0.5	8.3	-46.5	0.2
CC(=O)NC(C)C12CC3CC(CC(CC(=O)O)(C3)C1)C2 (stereo not drawn)	-6.2%	8.0	-1.4	3.3	0.2
O=C(CCN1C(=O)C2C3C=CC(C3)C2C1=O)Nc1ccc(F)cc1 (stereo not drawn)	-11.7%	-2.7	3.2	-31.7	0.2
O=C(CSCc1ccc(Cl)cc1)Nc1ccc(O)cc1C(=O)O	.	6.5	.	.	-17.4
COC(=O)c1ccccc1NC(=O)c1cc[n+](C)cc1	.	-6.1	.	.	-0.9
CC(=O)c1nnn(-c2c(F)cccc2F)c1C	-10.1%	-10.6	.	.	3.5
COCCNC(=O)c1ccc(N2CC3CC(C2)c2cccc(=O)n2C3)c([N+](=O)[O-])c1 (stereo not drawn)	2.1%	0.7	15.7	.	-2.4
COc1ccccc1CN(C(=O)CNC(=O)c1ccco1)C(C(=O)NCC1CCCO1)c1ccc(OC)c(OC)c1 (stereo not drawn)	.	-5.6	.	.	0.8
CCOC(=O)N1CCC(NC(=O)CS(=O)(=O)Cc2nc(-c3ccccc3Cl)oc2C)CC1	.	-5.6	.	.	-2.1
OCCCCc1nccc2c1[nH]c1ccccc12	.	5.1	.	.	1.4
COc1cc(OC)cc(C(=O)N[C@H](C(=O)NC23CC4CC(CC(C4)C2)C3)C(C)C)c1	-3.9%	-4.2	-12.1	6.7	0.0
COc1ccc(N2CC(C(=O)Nc3nnc(SCC(=O)NC(C)(C)C)s3)CC2=O)cc1 (stereo not drawn)	-0.8%	-7.0	4.8	.	-2.5
COCCCNc1nc2cc(OC)c(OC)cc2c2nc(-c3ccccc3)nn12	.	7.8	.	.	1.0
Cc1nn(C)cc1CNC(=O)/C=C/c1cnn(C)c1	-3.7%	0.2	-19.1	-30.1	-0.7
CN1CCN(CCNC(=O)Cn2c(=O)c3cccn3c3ccc(F)cc32)CC1	.	0.7	.	.	-8.4
NC(=O)NC(CC(=O)N1CCc2ccccc2C1)c1ccc(Cl)cc1 (stereo not drawn)	.	-4.4	.	.	0.0
CCCCOc1nc2c(c(=O)n(C)c(=O)n2C)n1C	-8.4%	-5.7	.	.	3.7
CSc1nc(C(C)C)ccc1CNC(=O)CC(C)c1ccccc1 (stereo not drawn)	.	-6.5	.	.	0.8
CCC(CC)NC(=O)COC(=O)c1cccc(C)c1O	-5.3%	-10.8	7.4	-4.5	.
O=C1CCCC2=C1C(c1ccccc1)C1C(=O)c3ccccc3C1=N2 (stereo not drawn)	11.5%	4.8	-13.9	-8.9	-1.4
O=C(COc1ccc(Cl)cc1)NC1CC1	.	3.4	.	.	-2.1
COc1cccc(C(=O)N2CCN(S(C)(=O)=O)CC2)c1	-9.2%	2.4	6.3	4.1	-0.2
CCCCN(C(=O)CCNC(=O)NC12CC3CC(CC(C3)C1)C2)c1c(N)n(CCCC)c(=O)[nH]c1=O	.	-2.9	.	.	-1.4
CC1CN(c2nnc(NC(=O)c3ccccc3)s2)CC(C)O1 (stereo not drawn)	2.5%	10.4	10.6	.	5.2
Cc1nc(N2CCN(c3ccccn3)CC2)c2c(C)c(C(=O)Nc3ccc(F)cc3Cl)sc2n1	.	94.6	.	.	-1.7
Cc1ccc(N=C2C(=O)Nc3ccc(C)c(Br)c32)cc1	.	-6.3	.	.	-1.7
COCc1cc(C)nc(SCC(=O)Nc2cccc(C)c2)c1C#N	1.3%	-3.7	-3.1	13.1	-1.2
CCOC(=O)c1csc(NC(=O)CSc2nnnn2-c2ccc(OCC)cc2)n1	-3.6%	.	-7.4	-7.5	0.3
Nc1nnc(SCC(=O)OCC(=O)c2ccccc2)s1	-6.8%	2.8	25.0	.	7.0
CCC(C(=O)NCCCN1CCN(C)CC1)n1nc(C)n2c(cc3occc32)c1=O (stereo not drawn)	.	-3.8	.	.	1.4
CCCCCN(C(=O)NC(=O)Nc1ccccc1C)S(C)(=O)=O	2.1%	7.0	10.3	-54.3	2.4
C[C@@H](C(=O)Nc1ccc2ccccc2c1)[C@H]1C[C@]1(C)[C@H](NC(=O)c1cccnc1)c1ccccc1	9.2%	72.9	-18.4	-28.7	.
O=C(COC(=O)c1ccc[nH]c1=O)NCC1CCCO1 (stereo not drawn)	2.8%	-4.9	-2.0	-32.7	-1.1
Clc1ccc(NCn2cncn2)nc1	4.4%	-4.0	11.9	-75.8	1.7	Arbovirus anti repeat=-1.7
O=C(O)C(Cc1c[nH]c2ccccc12)NS(=O)(=O)c1ccc(Cl)c(C(F)(F)F)c1 (stereo not drawn)	.	10.0	.	.	1.1
